Source: PubChem
Bead autofluor = flagged as autofluorescent in microsphere protease counterscreen; compound autofluorescence counterscreen, microsphere flow cytometry; stronger effect = higher value; fluorescence intensity (concentration not given with the values); 3.1% of 360,000 active;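 active = at least 3 SD above the mean of all compounds, about 16000 in these data; inconclusive = too few beads counted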;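 note: 100 nL of 1 mM stock went into each well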
BJeLR lethal = BJeLR cell viability loss; BJeLR (HRASV12) viability, CellTiter-Glo ATP luminescence, 48 h; reference of the scale not given here; inhibition, % (no concentration beside the values); 0.17% of 300,000 active; AID 1554;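 active = replicate mean above 50%; inconclusive = above 50% but judged a plate artefact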;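 note: 50 nL library stock added to about 25 µL; numbers are from one replicate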
PrP 5UTR inh = inhibition of PrP 5' UTR reporter expression. cell-based PrP 5' UTR mRNA reporter, plate reader. 0.35% of 340,000 active. inhibition, % (test concentration not listed);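 active = every replicate at 50% or more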;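 note: 0 = median of the neutral control wells; tested in H4 reporter cells; numbers are from one replicate; inactives centre near -14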
Sa RN4220 lethal = kills Staphylococcus aureus RN4220. 0.33% of 330,000 active. S. aureus RN4220 growth, OD600, 16 h. AID 1259311. inhibition, % (test concentration not listed);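 active = z-score of -3 or lower and OD600 up to 0.18 on both plates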;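 note: plate controls were untreated cells for no effect and reference antibiotic for full effect; stock transfer was 100 nL into about 80 µL; one replicate is shown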
ugtP null kill = kills S. aureus RN4220 lacking UgtP; 0.54% of 330,000 active; growth inhibition, % (test concentration not listed); S. aureus RN4220 ugtP deletion, OD600 growth, 16 h; some inactives read as strong as hits;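 active = z-score under -3 and OD600 up to 0.15 on both plates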;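 note: plate controls were untreated wells for no effect and antibiotic for full effect; wells of about 80 µL received 100 nL stock; the first replicate is given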
Mtb hypoxia rep = reduces hypoxia-regulated biosensor signal in M. tuberculosis; fluorescence inhibition, % (no concentration beside the values); 0.1% of 300,000 active; AID 1159583; M. tuberculosis hypoxia-regulated fluorescent reporter, fluorescence;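 active = 35 to 45% if threefold the growth effect, above 45% if 1.5-fold the growth effect; inactive = the rest, general growth blockers included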;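 note: wells of about 50 µL received 100 nL stock; 0% = vehicle wells and 100% = reference inhibitor wells; whole bacteria with a GFP reporter of the hypoxia response; strong numbers were not always called active; many hits fall short of the cut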
Mtb hypoxia rep growth = second read-out of Mtb hypoxia rep, no call of its own (marks repeat the call); growth inhibition, %; measured here: M. tuberculosis growth (absorbance);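 0% = vehicle and 100% = reference antibiotic; read after six days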
The depositor's hits bear a star; ? = inconclusive; . = no result given. The order is random; any-hit rate near 4%.

SMILES	Bead autofluor	BJeLR lethal	PrP 5UTR inh	Sa RN4220 lethal	ugtP null kill	Mtb hypoxia rep	Mtb hypoxia rep growth
COc1cc2c(cc1OC)C(C(=O)NCc1cccnc1)C(c1cccnc1)N(C)C2=O (configuration not stated)	8071	-5	-35	0.4	-3	12	6
CN(CC(=O)N1CCN(c2ccccc2F)CC1)S(=O)(=O)c1cnc[nH]1	12791	-1	-16	3.0	8	9	12
O=C(/C=C/c1ccccc1)CC(=O)c1ccccc1O	4956	8	-92	29	24	10	11
O=C(NNS(=O)(=O)c1ccccc1[N+](=O)[O-])c1ccncc1	2162	4	-7	2.5	0	2	7
Cn1c(CNC(=O)CNC(=O)c2ccccc2)cc(=O)n(C)c1=O	4936	-2	-8	1.4	7	7	5
Cc1nnc(NC(=O)Cc2cccs2)s1	7613	3	-21	4.6	6	5	-5
CN(C)S(=O)(=O)c1ccc(N/C=C(\[N+](=O)[O-])S(=O)(=O)c2ccccc2)cc1	3774	14	-17	5.3	13	16	12
COc1ccc(Nc2nc(N3CCCCC3)c3ccccc3n2)cc1	2990	4	-12	-6.7	-19	-17	5
O=C(NCC1CCCO1)c1cccc2ccccc12 (configuration not stated)	3702	12	-15	1.3	1	24	10
CCn1cc(C(C)NC(=O)Nc2ccccc2C(=O)OC)c(C)n1 (configuration not stated)	4646	-4	1	4.1	6	-1	0
COc1ccccc1CNC(=O)CN(C)CC(=O)Nc1ccccc1Br	4320	.	-2	6.0	2	-1	8
NS(=O)(=O)c1cccc(NC(=O)COC(=O)COc2ccc3ccccc3c2)c1	4621	-5	-8	2.0	0	13	2
S=C(N/N=C/c1ccccc1Cl)Nc1ccccc1	15988	-12	3	.	.	.	.
COc1cc(C=NOCC(=O)Nc2cc(C)cc(C)c2)ccc1OCc1ccc(Cl)cc1	.	.	.	5.2	-2	-9	-3
C/C=C(\C)C(=O)O[C@@H]([C@H](O)c1cc2ccc(=O)oc2cc1OC)C(C)(C)O	3864	.	-21	-14	-7	15	8
CC(C)CNc1nnnc2c1sc1nc(N3CCOCC3)c3c(c12)CCCC3	.	-10	-2	5.6	5	15	17
Cc1ccc(OCCNC(=O)c2cccc(S(=O)(=O)N3CCN(Cc4ccccc4)CC3)c2)cc1	2920	.	-12	2.0	0	8	9
CC(C)c1nnc(NC(=O)CCC(=O)N2CCN(c3ccc(F)cc3)CC2)s1	4219	-12	-18	1.8	3	14	8
O=C(NCc1ccccc1Cl)c1cc(=O)[nH]c2ccccc12	4380	-5	-8	3.4	2	-4	5
COc1ccc(C(O)CNC(C)C)c(F)c1OC (configuration not stated)	3753	9	-4	9.0	0	5	3
c1ccc(C2=NN(c3ccccc3)C(c3ccco3)C2)cc1 (configuration not stated)	2178	6	-22	0.8	6	-9	-3
Cc1ccc(C(=O)N/N=C\c2ccc(Br)o2)o1	5377	-2	3	.	.	.	.
COc1ccc(NC(=O)c2cc3nc(-c4ccccc4)cc(C)n3n2)cc1OC	2536	-5	-27	6.0	1	-2	-8
CCCCC(=O)Nc1nnc(/C=C/c2ccc(OC)cc2)s1	4084	-4	-32	5.3	2	1	-4

Four neighbouring compounds out of the list so far, quoted:
SMILES	Bead autofluor	BJeLR lethal	PrP 5UTR inh	Sa RN4220 lethal	ugtP null kill	Mtb hypoxia rep	Mtb hypoxia rep growth
S=C(N/N=C/c1ccccc1Cl)Nc1ccccc1	15988	-12	3	.	.	.	.
COc1cc(C=NOCC(=O)Nc2cc(C)cc(C)c2)ccc1OCc1ccc(Cl)cc1	.	.	.	5.2	-2	-9	-3
C/C=C(\C)C(=O)O[C@@H]([C@H](O)c1cc2ccc(=O)oc2cc1OC)C(C)(C)O	3864	.	-21	-14	-7	15	8
CC(C)CNc1nnnc2c1sc1nc(N3CCOCC3)c3c(c12)CCCC3	.	-10	-2	5.6	5	15	17

Further records follow:
SMILES	Bead autofluor	BJeLR lethal	PrP 5UTR inh	Sa RN4220 lethal	ugtP null kill	Mtb hypoxia rep	Mtb hypoxia rep growth
Cc1coc2cc3oc(=O)c4c(c3cc12)CCCC4	13234	-4	-12	5.4	-3	3	5
CN(C(=O)c1cccc(NC(=O)Cc2ccc(NC(=O)C3CCCN(C(=O)C4CCCCC4)C3)cc2)c1)C1CCC1 (configuration not stated)	3628	.	-22	0.0	3	-7	-2
Cc1ccc2c(c1)-c1c(ssc1=S)C(C)(C)N2C(=O)CSC1=NCCS1	7986	-7	-6	2.3	15	1	5
CC(C)CNC(=O)CN(C1CCCCC1)S(=O)(=O)c1ccccc1	3043	-8	-5	4.0	1	2	1
COc1ccc(CCC2(C)NC(=O)NC2=O)cc1 (configuration not stated)	11288	-8	-24	1.4	1	7	12
O=C1C(Cc2cnc[nH]2)NC(=S)N1c1ccccc1 (configuration not stated)	3702	2	-24	2.2	2	9	6
Cc1ccc[n+](-c2[nH]c(=O)sc2/C=N/N=C(\[O-])c2cccnc2)c1	5317	-1	-3	.	.	.	.
CCCNc1cc(C)oc(=O)c1C(=O)CCC	9187	-8	-1	2.7	0	5	2
CCOC(=O)C1=C(C)N(c2ccc(OC)cc2)C(=O)/C1=C\c1ccc(O)c(OCC)c1	4387	-12	-18	.	.	.	.
CC(=O)Nc1ccccc1C(=O)OCC(=O)c1ccccc1Cl	7387	4	15	7.7	7	6	6
CCOC(=O)CC1(c2ccc(OC)c(OC)c2)C(=O)c2ccccc2C1=O	4369	-2	-1	6.5	3	8	-2
CC(C)(C)c1ccc(OCc2nc(-c3ccccn3)no2)c(Br)c1	4670	-1	-94	17	71	6	6
CCCn1c(C)nc2c(c1=O)c1nc3ccccc3nc1n2CCC1=CCCCC1	9391	5	2	8.3	-19	8	8
COC(=O)C(NC(=O)c1ccccc1)(Nc1nccs1)C(F)(F)F (configuration not stated)	2579	-6	-18	5.9	0	12	8
CC(C)NC(=O)CC(=O)N/N=C/c1cccs1	3925	10	-18	.	.	.	.
CNc1nc(N)c([N+](=O)[O-])c(NCC2CCCO2)n1 (configuration not stated)	4169	3	-6	2.1	5	-4	2
CC(C)(C)c1ccc(CN2C(=O)CSC2=O)cc1	2476	1	-9	3.2	11	10	13
NCCCNC(=O)Cn1c(=O)c2c3c(sc2n(Cc2ccccc2)c1=O)CCCC3	4037	3	-16	-6.0	1	-12	0
O=C(NCC1CCCO1)c1nn2c(C(F)(F)F)cc(-c3cccs3)nc2c1Br (configuration not stated)	4402	0	-23	10	4	0	0
COc1ccc(C(=O)OCC(=O)Nc2c(C)cccc2C)c(OC)c1OC	2894	-14	-5	6.1	7	-7	1
CNC(=S)N/N=C1\C(=O)c2cccc3cccc1c23	17615*	3	-47	10.0	3	.	.
O=C(COC(=O)c1ccc(S(=O)(=O)NCc2ccco2)cc1)NC1CCCCCC1	9658	4	-16	3.3	1	-1	-2
COC(=O)C1(S(=O)(=O)c2cccc3nsnc23)CC1	4202	0	-14	-0.5	-1	.	.
OC(COCC1COc2ccccc2O1)CN1CCN(c2ccccc2F)CC1 (configuration not stated)	2760	5	-22	1.2	-1	.	.

The list goes on; the last two above are carried over.
SMILES	Bead autofluor	BJeLR lethal	PrP 5UTR inh	Sa RN4220 lethal	ugtP null kill	Mtb hypoxia rep	Mtb hypoxia rep growth
COC(=O)C1(S(=O)(=O)c2cccc3nsnc23)CC1	4202	0	-14	-0.5	-1	.	.
OC(COCC1COc2ccccc2O1)CN1CCN(c2ccccc2F)CC1 (configuration not stated)	2760	5	-22	1.2	-1	.	.
CC(C)(C)OC(=O)NCc1ccc(CNC(=O)c2nc[nH]c2C(=O)NCc2ccc(CNC(=O)OC(C)(C)C)cc2)cc1	2848	.	-17	6.8	4	2	9
Cc1c(NS(=O)(=O)c2cccc(C(=O)N3CCC(C(N)=O)CC3)c2)c(=O)n(-c2ccccc2)n1C	2727	.	5	4.9	14	3	-7
O=C(CSc1nnc2sc3ccccc3n12)NCc1ccc2c(c1)OCO2	5201	1	-35	3.1	13	2	-6
Cc1cc(Cn2nc(-c3ccccc3)cc2C(=O)NCc2cccc(C(F)(F)F)c2)on1	2771	16	-2	.	.	.	.
O=C1Nc2ccc(Br)cc2C1(O)Cc1ccncc1 (configuration not stated)	2804	-1	-15	-11	-6	5	10
COc1ccc(CN(C)C2CCCCC2)c(C)c1C	9456	0	-37	0.1	0	6	9
Cc1cc(C(=O)Nc2sc3c(c2C#N)CCC3)no1	22362*	-3	-28	-1.6	-17	-4	0
COc1ccc(Nc2nccc(N(C)C)c2C#N)cc1	4646	-7	-10	2.6	2	4	8
c1cnc(SCCOc2cccc3ccccc23)nc1	3862	0	-80	9.5	9	3	10
CCOc1ccc(S(=O)(=O)N2CCN(C(=O)CCOc3ccccc3C)CC2)cc1	5183	4	-7	2.9	2	5	5
O=c1cc(-c2ccc(O)cc2)oc2c(O)c(O)c(O)c(O)c12	4109	.	-1	2.5	-9	.	.
CC(C)CC(=O)N/C(N)=N/c1nc2ccccc2o1	3540	-13	-90	0.6	8	3	3
Cc1cccn2c(=O)c(C=O)c(N3CCN(C)CC3)nc12	4014	-11	-14	0.9	9	22	8
Cc1ccc(N(CCC#N)C(=O)COC(=O)C2CCN(S(=O)(=O)c3ccc(C)c(C)c3)CC2)cc1	?	9	-27	0.9	5	6	0
CC(OC(=O)C1CCN(c2ccc(C(F)(F)F)cn2)CC1)C(=O)NC1CCCCC1C (configuration not stated)	6261	.	-10	-4.2	-4	-10	2
COc1ccc(C(=O)NC(=S)N2CCN(C)CC2)cc1Br	5604	-11	-6	.	.	.	.
COc1ccc(OC)c(NC(=O)c2sc3ncnc(N4CCN(c5ccccn5)CC4)c3c2C)c1	3508	-6	6	.	.	.	.
O=C(O)CCn1c(CO)nc2ccccc21	4143	7	-29	6.7	4	7	4
O=C(NC(=S)Nc1ccc(S(=O)(=O)N2CCCCC2)cc1)c1ccc(Cl)cc1	4221	4	-29	-9.9	91*	.	.
COc1ccc(OCCN2C(=O)c3cccc(N)c3C2=O)cc1	5875	4	-37	1.1	4	-2	14
COCC(C)n1c(C)cc(C(=O)CN2C(=O)NC(Cc3c[nH]c4ccccc34)C2=O)c1C (configuration not stated)	3079	-6	-25	4.4	4	-1	2
CC(C)(C)NC(=O)c1ccc2nccnc2c1	16956*	-6	-18	4.3	1	11	7
CC(C)c1ccc(NC(=O)CCCC(=O)NCCc2ccccc2)cc1	3121	-6	-3	4.3	0	-14	-9
NC(=O)c1nc(C(=O)N2CCCCC2)c2ccccc2n1	3740	.	-4	4.7	-1	13	3
COc1cccc(/C=C2/Oc3ccccc3N(CC(=O)NCC3CCCO3)C2=O)c1 (configuration not stated)	5834	2	7	4.8	1	6	9
COc1ccc(/C=C(/NC(=O)c2ccc(C)cc2)C(=O)N2CCCC2)cc1OC	3419	-2	-20	2.5	19	-2	-7
Cc1ccc(C)c(NC(=O)COC(=O)CCCN=C2NS(=O)(=O)c3ccccc32)c1	2124	-12	-7	2.9	4	1	6
O=C(c1cccc(Oc2c(Cl)cccc2[N+](=O)[O-])c1)N1CCCCC1	3222	-4	-25	12	-8	3	15
CCN(CC)CCCn1c2c(c(SCC(=O)Nc3cccc4ccccc34)nc1=O)CCC2	5123	16	-7	0.2	5	-2	-1
Cc1onc(-c2ccccc2)c1-c1ccc(S(N)(=O)=O)cc1	6478	0	-26	5.3	-6	2	1
CN(Cc1ccccc1)C(=O)c1ccc(NC(=O)Cc2cccc(NC(=O)C3CCCN(C(=O)C4CCCC4)C3)c2)cc1 (configuration not stated)	4155	.	-6	4.0	6	6	-3
O=S(=O)(Cc1nnnn1-c1ccccc1)c1ccccc1	?	2	-7	2.4	0	6	-4
NS(=O)(=O)c1ccc(CNc2nc(-c3cccnc3)nc3ccccc23)cc1	6192	-11	-13	13	4	5	19
Cc1cccc(CSC2=NCCN2S(=O)(=O)c2ccc(F)cc2)c1	5529	3	-13	3.3	-2	5	-7
CCOC(=O)c1ccc2[nH]c3c(c2c1)CCCC3	4782	-6	-37	-4.9	10	4	3
CCN(CC)c1nc(OCCNC(=O)Nc2ccccc2)nc(N(CC)CC)n1	2702	3	-1	-6.5	-32	.	.
COc1cc(/C=N/c2oc(-c3ccccc3)cc2C#N)ccc1O	10037	-5	-11	.	.	.	.
CCOC(=O)c1c(NC(=O)COC(=O)Cc2n[nH]c(=O)c3ccccc23)sc(C(=O)N(C)C)c1C	5686	-5	-9	-6.1	-8	-3	-10
CCCCC1=CC2=CC(=O)C(C)(OC(=O)CC)C(=O)C2=CO1 (configuration not stated)	2916	3	-3	11	5	11	2
CC(=O)Nc1ccc(-c2csc(Nc3ccc(S(N)(=O)=O)cc3)n2)cc1	4191	-1	-25	-5.3	0	2	1
